Runt-CBFb FRET: Runt domain-CBFb interaction inhibition; Q01196+Q13951; Cerulean-Runt/Venus-CBFb FRET ratio 530/480, 1 h; inhibition, % at 20 µM; 220,000 compounds, 0.46% hits; AID 1496;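 active = inhibition over about 50% at 20 µM in the single-dose screen, limit read from the data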;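 note: 0% = DMSO wells and 100% = excess unlabeled CBFb competitor control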
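Buffer or medium: Tris pH 7.5 buffer with BSA. Assay system: Cerulean-labeled Runt domain protein. Amount: each fluorescent fusion protein 100 nM. Read-out basis: loss of energy transfer signal. Incubation: 1 h compound exposure, room temperature. Probe or stimulus: Venus-CBFb binding partner, 100 nM. Detection: FRET, excitation 422 nm, emission at 530 and 480 nm.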
14-3-3 Bad PPI: disrupts binding of bovine 14-3-3 zeta to phospho-Bad peptide; 220,000 compounds, 0.71% hits; P63103; inhibition, % at 21.7 µM; TR-FRET 14-3-3zeta/Dy647-pBad peptide displacement, 1 h;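 active = inhibition above about 70%, limit read from the data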;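 note: 0% = full 14-3-3 plus peptide FRET controls and 100% = background without 14-3-3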
Target sequence (P63103 whole entry, looked up): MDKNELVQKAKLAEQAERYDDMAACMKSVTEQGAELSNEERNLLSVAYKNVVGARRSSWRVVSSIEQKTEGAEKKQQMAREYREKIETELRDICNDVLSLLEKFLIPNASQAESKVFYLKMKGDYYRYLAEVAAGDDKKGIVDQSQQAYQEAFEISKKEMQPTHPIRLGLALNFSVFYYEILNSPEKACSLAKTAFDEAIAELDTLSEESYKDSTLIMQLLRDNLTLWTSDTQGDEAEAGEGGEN
Hck Nef HTS: inhibitors of human Hck kinase activated by Nef | Recombinant Hck-YEEI plus Nef, Z-Lyte FRET kinase assay | 220,000 compounds, 0.68% hits | AID 463187 | inhibition, % at 20 µM;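 active = Hck-Nef kinase inhibition above about 50%, limit read from the data; inactive = inhibition below that limit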;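 note: 0% = DMSO with Hck plus Nef and 100% = Hck alone without Nef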
Wee1 degr inh: human Wee1 degradation inhibition, primary screen; reporter increase, % at 5 µM; AID 1321; HeLa Luc-Wee1K328M stability, luciferase luminescence; 100% = proteasome inhibitor MG132 effect; P30291; 220,000 compounds, 1.2% hits;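 active = activation above the mean of all tested compounds plus 3 SD, set per screening run, cut at about 8.8% in these data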;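 note: cells exposed to compound for 20 h before luminescence read; 0% = DMSO alone and 100% = MG132 at 30 µM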
Runt-SMMHC FRET: blocks binding of human RUNX1 Runt domain to CBFb-SMMHC; Q01196+Q13951; Cerulean-Runt/Venus-CBFb-SMMHC FRET ratio 530/480, 1 h; inhibition, % at 20 µM; 220,000 compounds, 0.74% hits; AID 1434;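 active = mean inhibition across duplicate retests at 20 µM reaching about 50%, limit read from the data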;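 note: 0% = DMSO wells and 100% = wells with excess untagged CBFb-SMMHC; inhibitors lower the FRET ratio by blocking Runt binding to CBFb-SMMHC; some results filed as inactive read as strong as hits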
Starred values were filed as active, the others as inactive; · = no result given; [ ] = another dose, or the depositor's remark. Not all compounds are listed; rates above refer to the full screens.

entry	canonical_smiles	Hck Nef HTS	Runt-CBFb FRET	Runt-SMMHC FRET
1	O=C(COc1ccccc1)NCC(=O)N/N=C/c1ccccc1	-1	-2	8
2	CCC(=O)n1nc(-c2ccco2)nc1SCc1ccccc1	5	17	4
3	CSc1nc(-c2ccco2)nn1C(=O)c1ccco1	-4	2	1
4	CCCC(=O)n1nc(-c2ccccc2)nc1SC	7	0	1
5	Cc1ccc(NCC(O)C(O)C(O)CO)c(N=Nc2ccccc2)c1C (stereo not given)	11	-5	-7
6	Cc1ccc(C(=O)n2ncn(C)c2=S)cc1	-21	4	3
7	CSc1nc(-c2ccccc2)nn1C(=O)c1ccc(C)cc1	-4	2	-4
8	Nc1cc(OC(=O)c2cccs2)nn1S(=O)(=O)c1ccc(F)cc1	1	2	3
9	COc1cccc(C(=O)Oc2cc(N)n(S(=O)(=O)c3ccc(C)cc3)n2)c1OC	4	-1	4
10	Cc1ccsc1C(=O)Nc1n[nH]c(C(F)(F)F)n1	-23	0	1
11	COc1ccc(CNc2nc(-c3cccnc3)nn2C(=O)c2ccco2)cc1	2	-3	1
12	COc1ccc(C(=O)n2nc(C)cc2C)cc1OC	7	-3	-2
13	CC(=O)Nc1ccc(C(=O)n2nc(C)cc2C)cc1	-2	0	-7
14	CCOC(=O)CSc1n[nH]c(NC(=O)c2ccccc2)n1	0	-2	-1
15	COc1cccc(-c2nn(-c3ccccc3)cc2C(=O)n2nnc3ccccc32)c1	1	2	2

entry	Wee1 degr inh	14-3-3 Bad PPI
1	0	36
2	2	10
3	-1	9
4	-1	9
5	-2	-6
6	1	42
7	-3	-10
8	4	20
9	3	46
10	3	-4
11	9	8
12	4	9
13	2	-3[fluorescence artefact?]
14	-1	4
15	-1	-8

5 entries drawn at random from the list so far, as already listed:
entry	canonical_smiles	Hck Nef HTS	Runt-CBFb FRET	Runt-SMMHC FRET
7	CSc1nc(-c2ccccc2)nn1C(=O)c1ccc(C)cc1	-4	2	-4
11	COc1ccc(CNc2nc(-c3cccnc3)nn2C(=O)c2ccco2)cc1	2	-3	1
2	CCC(=O)n1nc(-c2ccco2)nc1SCc1ccccc1	5	17	4
6	Cc1ccc(C(=O)n2ncn(C)c2=S)cc1	-21	4	3
9	COc1cccc(C(=O)Oc2cc(N)n(S(=O)(=O)c3ccc(C)cc3)n2)c1OC	4	-1	4

entry	Wee1 degr inh	14-3-3 Bad PPI
7	-3	-10
11	9	8
2	2	10
6	1	42
9	3	46

Returning to the listing, starting 2 compounds before the break.
entry	canonical_smiles	Hck Nef HTS	Runt-CBFb FRET	Runt-SMMHC FRET
14	CCOC(=O)CSc1n[nH]c(NC(=O)c2ccccc2)n1	0	-2	-1
15	COc1cccc(-c2nn(-c3ccccc3)cc2C(=O)n2nnc3ccccc32)c1	1	2	2
16	O=C(c1ccco1)n1nc(-c2ccco2)nc1SCc1ccccc1	-2	0	-2
17	N=C(N)c1ccccc1	16	2	0
18	O=c1[nH]c(NNC(=S)NC2CCCCC2)nc2c1C1(CCCC1)Cc1ccccc1-2	-10	8	-2
19	O=C1C(CCS(=O)c2ccccc2)C(=O)N(c2ccccc2)N1c1ccccc1 (stereo not given)	6	42	43

entry	Wee1 degr inh	14-3-3 Bad PPI
14	-1	4
15	-1	-8
16	3	13
17	·	3
18	-1	-12
19	-3	-12

Source: PubChem (several laboratories)
